HPGD inh – qHTS Assay for Inhibitors of HPGD (15-Hydroxyprostaglandin Dehydrogenase) | purified HPGD, NADH fluorescence kinetic, PGE2 substrate | Potency, µM, for inactives: at the highest dose activity change, negative = inhibition, usual class: inhibitors | actives 4.3% (n = 150,000); active = well fitted inhibition curve with a large enough effect (not every such curve was filed as active); inconclusive = small, poorly fitted or top-dose-only effect, or another doubt; inactive = no such curve, though single readings can be large or run the other way;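 note: top concentration of the series not given in the record; plate controls included wells without enzyme; inactives centre near -10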
Target sequence (P15428 whole entry, looked up): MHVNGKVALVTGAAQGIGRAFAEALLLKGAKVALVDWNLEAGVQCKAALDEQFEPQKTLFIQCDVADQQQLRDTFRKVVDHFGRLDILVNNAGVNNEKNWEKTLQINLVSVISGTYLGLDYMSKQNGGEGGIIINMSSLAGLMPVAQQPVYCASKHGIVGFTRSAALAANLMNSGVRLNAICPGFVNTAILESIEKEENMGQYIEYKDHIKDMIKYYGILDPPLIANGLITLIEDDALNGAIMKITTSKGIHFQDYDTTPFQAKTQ
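20 nM HPGD preincubated 15 min at room temperature with compound in 50 mM Tris-HCl pH 8, 0.01% Tween 20. Started with 1 mM NAD+ and 30 uM prostaglandin E2; NADH fluorescence (360/450 nm) read 5 times over 30-s intervals, last minus first.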
Active calls of the source: *; & = joins results of further samples. % is set by controls: 0 for no effect and ±100 for the full control effect; potency is the fitted concentration of half-maximal effect. An excerpt; the hit share may differ from the screen's.

Screening COc1ccc2c(c1)Cc1sc(NC(=O)c3ccccc3)nc1-2 returned HPGD inh inconclusive.
For CCC(=O)OCc1c(C(F)(F)F)nn(C)c1Oc1cccc(C(F)(F)F)c1 the results were HPGD inh -19.6%.
`CC1=CC(C)C2C(=O)N(CCCN(C)C)C(=O)C2C1` (stereo unspecified) gave HPGD inh -4.2%.
`N=c1n(CC(=O)c2ccc([N+](=O)[O-])cc2)c2ccccc2n1Cc1ccccc1Cl` gave HPGD inh -6.2%.
Screening Cc1cccc([N+](=O)[O-])c1C returned HPGD inh -2.0%.
For COCCOC(=O)c1c(C)oc2ccc(OC(=O)c3ccco3)cc12 the results were HPGD inh -1.5%.
O=C(O)/C(=C\c1ccncc1)c1cccc2ccccc12 was read as HPGD inh -6.1%.
Screening Cc1ccc(C(OCCN(C)C)c2cccc(C(F)(F)F)c2)cc1 (stereo unspecified) returned HPGD inh -10.4%.
CN(C)c1ccc(NC(=O)c2ccc([N+](=O)[O-])cc2Cl)cc1 was read as HPGD inh -1.4%.
For COc1ccc(CC(=O)Nc2ccc(S(=O)(=O)Nc3nc(C)cc(C)n3)cc2)cc1 the results were HPGD inh -10.7%.
Screening CCCN(C(=O)c1cccs1)c1nnc(-c2ccncc2)s1 returned HPGD inh -8.3%.
`Cc1ccnc(Nc2nc3ccccc3o2)n1` gave HPGD inh -13.2%.
CCN(CC)C(=O)C(=O)c1cccn1-c1cccc(-n2cccc2C(=O)C(=O)N(CC)CC)c1C#N was read as HPGD inh -9.9%.
`CCSc1nnc(NC(=O)CCc2ccc(OC)cc2)s1` gave HPGD inh -10.3%.
Screening Cc1ccn2cc(CCNC(=O)C3CCCCC3)nc2c1 returned HPGD inh inconclusive.
For O=C(Nc1ccc(Cc2ccncc2)cc1)C1CC1 the results were HPGD inh -24.8%.
CC1=C(C(=O)Nc2ccccc2F)C(c2ccsc2)C2=C(CC(c3ccccc3)CC2=O)N1 (stereo unspecified) was read as HPGD inh inconclusive.
Screening CCN1C(=O)N[C@@H](c2ccc(Br)cc2)C(C(=O)OC)=C1C returned HPGD inh -6.7%&-9.3%.
Screening Nc1c(N)c2ccccc2oc1=O returned HPGD inh -11.3%.
Screening COc1nonc1NC(=O)CSc1nc2ccccc2[nH]1 returned HPGD inh -13.3%.
`CCn1c(SCC(=O)Nc2sc3c(c2C(N)=O)CCC(C)C3)nnc1-c1ccco1` (stereo unspecified) gave HPGD inh inconclusive.
`CC1(C)CC(=O)C2=C(C1)Nc1ccccc1NC2c1ccc2c(c1)OCO2` (stereo unspecified) gave HPGD inh -13.7%.
CC1=CC(C)(C)N2C(=O)C3(C(C#N)=C(N)OC4=C3C(=O)CC(C)(C)C4)c3cccc1c32 (stereo unspecified) was read as HPGD inh -4.8%.
Cc1cccc(NCCC(=O)c2ccc(Br)cc2)c1 was read as HPGD inh -9.5%.
Screening Cc1nc2ncnn2c(C)c1Cc1ccc(Cl)cc1F returned HPGD inh -1.7%.
For O=C(NCCN1CCOCC1)c1cc(Sc2ccccc2Cl)nc2ccccc12 the results were HPGD inh 5.9%.
Screening Cc1ccc(N(CC(=O)Nc2ccc3c(c2)OCCO3)S(=O)(=O)c2c(C)n[nH]c2C)cc1 returned HPGD inh -23.5%.
CC(=O)c1cccc(NC(=O)CSCc2ccc(Br)cc2)c1 was read as HPGD inh -3.7%.
For CCc1c(C(=O)N/N=C/c2cn[nH]c2-c2ccc(F)cc2)csc1C the results were HPGD inh -10.5%.
`O=C(c1ccc(Cl)cc1)C1CCN(C(=O)C2CC2)CC1` gave HPGD inh -12.2%.
CCOC(=O)c1sc(NC(=O)CSc2nnc(C(C)C)n2C)nc1C was read as HPGD inh -2.0%.
For Cc1ccc(/C=N/N2CCN(c3ccc(Cl)cc3)CC2)o1 the results were HPGD inh -2.9%.
`COc1cccc(C(=O)Nc2ccc(S(=O)(=O)Nc3onc(C)c3C)cc2)c1` gave HPGD inh 35.5µM*.
Screening Cc1ccccc1-n1c(SCc2c(C)noc2C)nnc1-c1c[nH]c2ccccc12 returned HPGD inh -7.2%.
Screening Cc1cccc(C)c1N1CCN(C(=O)Nc2ccc3c(c2)OCCO3)CC1 returned HPGD inh -10.8%.
Screening Cn1c(N)c(C(=O)Nc2ccc3ccccc3c2)sc1=S returned HPGD inh 8.91µM*.
CCN(CC)c1ccc(N=Cc2ccccc2[N+](=O)[O-])cc1 was read as HPGD inh -11.7%.
`CSCCC(NC(=O)OC(C)(C)C)C(=O)NC(CC(C)C)C(N)=O` (stereo unspecified) gave HPGD inh -11.7%.
For CCCC12CN3CC(C)(CN(C1)C3c1ccc(OC)cc1)C2=O (stereo unspecified) the results were HPGD inh -1.1%.
For CN1CC(=O)N(CC(=O)NCCc2ccc(F)cc2)c2ccccc2C1=O the results were HPGD inh -6.6%.
For COc1cccc(-c2nc3n(n2)C(c2ccc4c(c2)OCO4)C(C(N)=O)=C(C)N3)c1 (stereo unspecified) the results were HPGD inh -17.6%.
`Oc1ccc(Br)cc1-c1nc2cnccn2c1NC1CCCCC1` gave HPGD inh 0.6%.
Screening Cc1c(C(=O)NCc2ccccc2)cnn1-c1ccccc1 returned HPGD inh 17.8µM*.
`Cc1ccc(S(=O)(=O)NCCCCCC(=O)Nc2nccs2)cc1` gave HPGD inh -5.9%.
For CC(C)c1ccccc1NC(=O)COC(=O)Cc1c[nH]c2ccccc12 the results were HPGD inh -6.2%.
Screening C=CCn1c(COc2cccc(C)c2)nnc1SCC(=O)NC(=O)NCc1ccco1 returned HPGD inh -11.6%.
Cc1cccc(C)c1NC(=O)c1c(C)nn(-c2ccccc2)c1Cl was read as HPGD inh -6.4%.
For CN1C(=O)CC(N2CCC(c3nc4ccccc4[nH]3)CC2)C1=O (stereo unspecified) the results were HPGD inh -3.6%.
CC1CCCCN1c1nnc(N)s1 (stereo unspecified) was read as HPGD inh inconclusive.
For C/C(=N/NC(=O)c1ccco1)c1cccc(NC(=O)c2ccc(C)s2)c1 the results were HPGD inh -0.1%.
Screening Fc1ccc(CSc2nnc(Cc3sc(-c4ccccc4)nc3-c3ccccc3)o2)cc1 returned HPGD inh -14.1%.
For COc1ccc(/C=C/c2ccncc2)cc1OC the results were HPGD inh inconclusive.
`CC1(C)Cc2cccc(OCC(=O)Nc3cccnc3)c2O1` gave HPGD inh -2.7%.
For COc1ccc(-c2cc(C(=O)N3CCOCC3)c3cc(C)ccc3n2)cc1 the results were HPGD inh inconclusive.
COC(=O)[C@@H]1[C@@H]2C[C@H]3c4[nH]c5ccccc5c4CCN3C[C@@H]2CC[C@@H]1OS(=O)(=O)O was read as HPGD inh -7.9%.
Screening COC(=O)c1cc2sc(Cl)cc2n1Cc1nc(-c2ccccc2)oc1C returned HPGD inh 3.0%.
Screening Cc1cc[n+](-c2[nH]c(=O)sc2/C=N/NC([S-])=Nc2ccccc2)cc1 returned HPGD inh -28.8%.
For CC(C)(C)NC(=O)CN(C(=O)CNS(=O)(=O)c1ccccc1)c1ccc2c(c1)OCCO2 the results were HPGD inh -10.4%.
For CN1/C(=C/C2CC(=O)N(c3cccc4ccccc34)C2=O)C(C)(C)c2ccccc21 (stereo unspecified) the results were HPGD inh -12.8%.
O=C(Nc1ccccc1N1CCCCC1)c1ncoc1-c1ccc(F)cc1 was read as HPGD inh inconclusive.
`COc1cccc(CC(=O)Nc2ccc3nc(C)sc3c2)c1` gave HPGD inh -14.6%.
O=C1c2ccccc2C(=O)N1CCOCCN1C(=O)c2ccccc2C1=O was read as HPGD inh -0.6%.
`O=C(NCc1cccs1)c1nc2ncccn2n1` gave HPGD inh -7.5%.
Screening CCCCC1=CC2=CC(=O)C(C)(OC(=O)CC)C(=O)C2=CN1c1cccc(C#N)c1 (stereo unspecified) returned HPGD inh -2.5%.
`CC1CCOC2(O1)C(=O)N(CN1CCN(c3ccccc3F)CC1)c1ccccc12` (stereo unspecified) gave HPGD inh -2.8%.
For CCOC(=O)c1[nH]c(C)c(CN(CCc2ccc(OC)c(OC)c2)C(=O)CCCC(=O)O)c1C the results were HPGD inh -7.1%.
Screening O=C(COc1ccc(Cl)cc1Br)NNC(=O)C(=O)N1CCCCC1 returned HPGD inh -11.1%.
CCC(=O)N1CCc2cc(Br)cc(S(=O)(=O)CCC(=O)NCCc3ccccc3)c21 was read as HPGD inh -15.7%.
`Cc1nc2c(-c3ccccc3)c(C)nn2c(C)c1CCC(=O)NC(C)CCc1ccco1` (stereo unspecified) gave HPGD inh -10.2%.
Screening C=CCc1cccc(/C=N/NC(=O)CCC(=O)Nc2ccc(C)cc2)c1O returned HPGD inh -2.3%.
For OCC1OC([S-])[C@H](O)C(O)C1O.[Au+] (stereo partly specified) the results were HPGD inh -24.9%.
O=C(Nc1ccccc1C(=O)OCC(=O)N1CCc2ccccc2C1)c1ccco1 was read as HPGD inh inconclusive.
For O=C(CN1CCSC1=NCc1ccccc1)c1ccc(Cl)cc1 the results were HPGD inh -29.1%.
COc1ccccc1CNC(=O)CN1CCC(n2cnc3cc(F)ccc32)CC1 was read as HPGD inh -1.8%.
Screening O=C(N/N=C/c1ccc(Br)s1)c1cccc([N+](=O)[O-])c1 returned HPGD inh -6.9%.
`CC(Oc1ccccc1Cl)C(=O)N1CCOCC1` (stereo unspecified) gave HPGD inh 28.2µM*.
`CCc1cc(C(=O)N=Nc2c(O)[nH]c3c(Br)cc(Br)cc23)c2ccccc2n1` gave HPGD inh -6.1%.
Screening Cc1c(NC(=S)Nc2ccccc2)c(=O)n(-c2ccccc2)n1C returned HPGD inh -3.4%.
`N#Cc1ccc(OCC(=O)Nc2cc(S(=O)(=O)N3CCCCC3)ccc2N2CCCCC2)cc1` gave HPGD inh -8.6%.
`COc1ccc2nc(Nc3ccc4c(c3)OCO4)sc2c1` gave HPGD inh -23.8%.
Screening O=[N+]([O-])c1ccc2nc(SCc3ccccc3Cl)sc2c1 returned HPGD inh -12.1%.
For O=S(=O)(c1ccc(Oc2ncnc3scc(-c4ccccc4)c23)cc1)N1CCOCC1 the results were HPGD inh -17.2%.
`N#C/C(=C\c1cc([N+](=O)[O-])c(N2CCCCC2)cc1N1CCCCC1)c1nn(-c2ccccc2)c(N)c1C#N` gave HPGD inh -16.1%.
COc1ccccc1C1CC(c2ccco2)=NN1c1ccccc1 (stereo unspecified) was read as HPGD inh inconclusive.
For COc1ccc(CNC(=O)c2ccc(Br)o2)cc1 the results were HPGD inh 25.1µM*.
`O=C(Nc1cccc(O)c1)c1noc2c1CCc1ccccc1-2` gave HPGD inh -15.7%.
Screening Cc1noc(C)c1-c1nc(N2CCOCC2)c2ccccc2n1 returned HPGD inh 25.1µM*.
For CCN1CCCC1CNC(=O)Cn1ncc2c(=O)oc3ccc(C)cc3c21 (stereo unspecified) the results were HPGD inh -2.3%.
COc1ccc(C)cc1NC(=O)CN(C)S(=O)(=O)c1cnc[nH]1 was read as HPGD inh -10.3%.
`CC(=O)N1CCc2cc(S(=O)(=O)CCC(=O)N3CCN(c4ccccn4)CC3)ccc21` gave HPGD inh -8.7%.
Screening CN(C)c1nc(N)nc(CSc2nnnn2C)n1 returned HPGD inh -9.8%.
`C=CCC1(O)C(=O)Nc2ccccc21` (stereo unspecified) gave HPGD inh -4.6%.
For COCCCNc1nc(=S)[nH]c2cc(OC)c(OC)cc12 the results were HPGD inh 14.1µM*.
`CO/N=C(\Cn1ncc(N2CCCC2)c(Br)c1=O)c1ccc(Cl)cc1` gave HPGD inh -16.5%.
For CC(Oc1ccccc1F)C(=O)/C=C/N(C)C (stereo unspecified) the results were HPGD inh 28.2µM*.
`NC(=O)CCS(=O)(=O)CCN1CCCCC1` gave HPGD inh -1.4%.
Screening COc1ccc(C2C(=O)N(C3CCCCC3)CC(=O)N2C2CCCCC2)cc1 (stereo unspecified) returned HPGD inh 0.0%.
For CCOc1ccc(NC(=O)Cn2nnc(-c3ccccc3F)n2)cc1 the results were HPGD inh -2.2%.
For Brc1cccc(CN2CCCCCCC2)c1 the results were HPGD inh 4.7%.
`O=C(CSc1nc2ccccc2o1)NCC(=O)c1ccccc1` gave HPGD inh -0.5%.
For COc1ccc(NS(=O)(=O)c2ccc3nc(COc4ccc(C#N)cc4)[nH]c3c2)cc1 the results were HPGD inh -23.7%.

Gathered by group, the entries above with bromine (11)
Screening CCN1C(=O)N[C@@H](c2ccc(Br)cc2)C(C(=O)OC)=C1C returned HPGD inh -6.7%&-9.3%.
Cc1cccc(NCCC(=O)c2ccc(Br)cc2)c1 was read as HPGD inh -9.5%.
CC(=O)c1cccc(NC(=O)CSCc2ccc(Br)cc2)c1 was read as HPGD inh -3.7%.
`Oc1ccc(Br)cc1-c1nc2cnccn2c1NC1CCCCC1` gave HPGD inh 0.6%.
Screening O=C(COc1ccc(Cl)cc1Br)NNC(=O)C(=O)N1CCCCC1 returned HPGD inh -11.1%.
CCC(=O)N1CCc2cc(Br)cc(S(=O)(=O)CCC(=O)NCCc3ccccc3)c21 was read as HPGD inh -15.7%.
Screening O=C(N/N=C/c1ccc(Br)s1)c1cccc([N+](=O)[O-])c1 returned HPGD inh -6.9%.
`CCc1cc(C(=O)N=Nc2c(O)[nH]c3c(Br)cc(Br)cc23)c2ccccc2n1` gave HPGD inh -6.1%.
For COc1ccc(CNC(=O)c2ccc(Br)o2)cc1 the results were HPGD inh 25.1µM*.
`CO/N=C(\Cn1ncc(N2CCCC2)c(Br)c1=O)c1ccc(Cl)cc1` gave HPGD inh -16.5%.
For Brc1cccc(CN2CCCCCCC2)c1 the results were HPGD inh 4.7%.

From PubChem
